BJeLR viability = compounds reducing viability of BJeLR cells; hit rate 0.64% among 30,000; viability loss activity score, % (no concentration beside the values); BJeLR fibroblasts viability, CellTiterGlo ATP luminescence, 48 h; HRASV12, hTERT and SV40 LT/ST transformed; AID 2275; in the data active means viability loss activity score above about 50%; about a fifth of its hits are not listed in these tables;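 further: higher score means fewer live cells and less ATP luminescence; stock transfer was 50 or 100 nL into about 30 µL; 0% = vehicle wells and 100% = a reference killing control; one replicate is shown; the record names a cut of 85%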
A1 inhib = blocks A1 activity. hit rate 0.51% among 21,000. caspase activation, % (concentration not given with the values). MEF A1-2A-BIM cells, caspase-Glo luminescence, 3 h; percent of clofoctol signal, DMSO as zero. AID 2241;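 active means most replicate scores above 10, or exactly half above 10 with mean activity above 10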;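 further: effector caspase 3 and 7 activity cleaving a DEVD luciferin substrate; 50 nL library stock added to about 30 µL; numbers are from one replicate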
Numbers without * were called inactive; · = not tested or not shown.

SMILES	BJeLR viability	A1 inhib
C[C@H](CO)N1C[C@H](C)[C@@H](CN(C)S(=O)(=O)c2ccc(Cl)cc2)Oc2ccc(NS(=O)(=O)c3cn(C)cn3)cc2C1=O	-0.7	0.0
COC(=O)c1cn(C)c2ccc(S(=O)(=O)N(C)C3CCCCC3)cc2c1=O	0.2	0.7
CCN1CSC(=S)N(CC)C1	35	-0.3
Cn1c(SCc2ccc(C(F)(F)F)cc2)nnc1-c1ccc(OCC(F)(F)F)nc1	0.6	0.1
CCCCC(C(=O)N1CCCCC1)N1C(=O)c2ccccc2C1=O (centres undefined)	7.8	-0.4
Clc1ccc(CSCc2ccc(-c3csnn3)cc2)cc1	0.7	1.2
O=C(CCCN1C(=O)/C(=C\c2cccs2)SC1=S)Nc1ccc(O)cc1	-2.9	0.2
O=C(CC(NS(=O)(=O)c1ccc(Br)cc1)c1ccco1)NC1CC1 (centres undefined)	1.9	0.0
CNC[C@H]1Oc2ccc(NS(=O)(=O)c3cn(C)cn3)cc2C(=O)N([C@H](C)CO)C[C@@H]1C	-2.1	0.8
COc1ccc(S(=O)(=O)Nc2cccc3c2O[C@@H](CN(C)C(=O)Nc2ccc(F)cc2)[C@@H](C)CN([C@@H](C)CO)C3=O)cc1	-0.4	·
Cc1noc(C(=O)N(C)c2ccccc2)c1Cl	-1.6	·
Cc1noc(C)c1NC(=O)Nc1cccc2c1O[C@H](CN(C)Cc1ccncc1)[C@@H](C)CN([C@@H](C)CO)C2=O	2.9	·
C[C@H](CO)N1C[C@H](C)[C@@H](CN(C)Cc2ccc(Cl)c(Cl)c2)Oc2ccc(NC(=O)CCN3CCOCC3)cc2C1=O	1.3	0.5
COc1ccc2nc(NC(=O)CNS(=O)(=O)c3cccs3)sc2c1	-0.5	·
C[C@@H]1CN([C@H](C)CO)C(=O)c2cccc(NC(=O)Nc3ccc4c(c3)OCO4)c2O[C@@H]1CN(C)Cc1ccc(C(F)(F)F)cc1	-5.7	·
Cc1ccc(S(=O)(=O)Nc2ccc3c(c2)C(=O)N([C@H](C)CO)C[C@@H](C)[C@@H](CN(C)Cc2ccncc2)O3)cc1	-1.8	0.1
C[C@H](CO)N1C[C@H](C)[C@@H](CN(C)C(=O)Nc2ccc(C(F)(F)F)cc2)Oc2c(NC(=O)Nc3ccc4c(c3)OCO4)cccc2C1=O	1.9	·
CC(C)NC(=O)Nc1cccc2c1O[C@H](CN(C)Cc1ccncc1)[C@H](C)CN([C@H](C)CO)C2=O	-1.8	·
Cc1noc(C)c1NC(=O)Nc1cccc2c1O[C@@H](CN(C)Cc1ccc(Cl)c(Cl)c1)[C@H](C)CN([C@@H](C)CO)C2=O	-5.1	·
C[C@H](CO)N1C[C@H](C)[C@@H](CN(C)C(=O)Nc2ccc(C(F)(F)F)cc2)Oc2c(NS(=O)(=O)c3ccc(F)cc3)cccc2C1=O	-4.7	·
C[C@@H]1CN([C@@H](C)CO)C(=O)c2cc(NC(=O)NC3CCCCC3)ccc2O[C@H]1CN(C)C(=O)Nc1cccc2ccccc12	0.9	1.4
C[C@@H]1CN([C@@H](C)CO)C(=O)c2cc(NS(=O)(=O)c3ccccc3)ccc2O[C@@H]1CN(C)C(=O)Nc1ccc(F)cc1	4.0	-0.2
CCOC(=O)C1CCCN(C(=O)c2ccc(F)cc2)C1 (centres undefined)	6.2	0.2
COc1ccc(NC(=O)N(C)C[C@H]2Oc3ccc(NS(=O)(=O)c4ccc(F)cc4)cc3C(=O)N([C@H](C)CO)C[C@H]2C)cc1	-3.9	1.0
O=C1c2cccc3cccc(c23)N1S(=O)(=O)c1ccc(Br)cc1	1.3	·
CSc1sc(C(=O)O)c2c1S(=O)(=O)N(C)c1ccccc1-2	-4.4	2.2
C[C@@H]1CN([C@H](C)CO)C(=O)c2cccc(NC(=O)c3nc4ccccc4s3)c2O[C@H]1CN(C)Cc1ccc(Oc2ccccc2)cc1	0.3	·
N[C@@H](CC(=O)N1CCn2c(nnc2C(F)(F)F)C1)Cc1cc(F)c(F)cc1F	20	0.1
Cc1nnc(NCCc2ccccc2)n(N)c1=O	1.9	·
C[C@@H]1CN([C@H](C)CO)C(=O)c2cc(NC(=O)CCCN(C)C)ccc2O[C@@H]1CN(C)C	0.2	-0.4
O=C(Nc1ccc(Cl)c(Cl)c1)N(Cc1ccccc1)Cc1ccccc1	1.1	-0.1
O=C(NCc1sccc1COc1ccc(Cl)cc1)Nc1ccccc1F	1.2	-1.1
COc1ccc(NC(=O)Nc2cccc3c2O[C@H](CN(C)Cc2ccccc2)[C@@H](C)CN([C@H](C)CO)C3=O)cc1	2.5	·
CCCC(=O)N1CCC(c2c[nH]c3ccccc23)(c2c[nH]c3ccccc23)CC1	5.3	0.2
CC1=CCC2[C@](C)(CCC[C@]2(C)C(=O)O)[C@H]1CCc1ccoc1 (some centres undefined)	-4.9	0.1
C[C@@H]1CN([C@@H](C)CO)C(=O)c2cc(NC(=O)CCN3CCOCC3)ccc2O[C@@H]1CN(C)Cc1ccc(-c2ccccc2)cc1	-0.6	-1.0
CC(C)(C)N1NC2(CCCCC2)NC1=S	-7.4	0.8
C[C@H](CO)N1C[C@H](C)[C@H](CN(C)S(=O)(=O)c2ccc(Cl)cc2)Oc2ccc(NS(C)(=O)=O)cc2C1=O	0.3	0.6
COc1cccc(NC(=O)c2cc3c(=O)oc4ccccc4c3s2)c1	5.9	·
C[C@H]1CN([C@@H](C)CO)C(=O)c2cc(NC(=O)Cc3ccccc3)ccc2O[C@@H]1CN(C)S(C)(=O)=O	2.2	-0.1
Cc1ccc(S(=O)(=O)Nc2ccc3c(c2)C(=O)N([C@H](C)CO)C[C@H](C)[C@@H](CN(C)CC2CC2)O3)cc1	-3.2	-0.4
CCc1[nH]c(=S)c(C#N)c(-c2ccccc2)c1C(=O)OC	-4.1	-0.3
C=CCn1c(SCC(=O)OCC)nc2cc(C(=O)NCc3ccco3)ccc2c1=O	0.3	-0.4
C[C@H](CO)N1C[C@H](C)[C@H](CN(C)Cc2ccc3c(c2)OCO3)Oc2ccc(NC(=O)Nc3ccc(F)cc3)cc2C1=O	4.7	-0.3
C[C@H](CO)N1C[C@H](C)[C@@H](CN(C)Cc2ccc(C(F)(F)F)cc2)Oc2ccc(NC(=O)C3CC3)cc2C1=O	1.1	-0.1
COc1ccc(S(=O)(=O)N(C)C[C@@H]2Oc3c(NS(=O)(=O)c4ccccc4)cccc3C(=O)N([C@H](C)CO)C[C@H]2C)cc1	-4.9	·
CC(C)NC(=O)N(C)C[C@H]1Oc2ccc(N(C)C)cc2C(=O)N([C@H](C)CO)C[C@H]1C	-4.0	-0.7
C[C@@H]1CN([C@@H](C)CO)C(=O)c2cc(NC(=O)Cc3cn(C)c4ccccc34)ccc2O[C@@H]1CN(C)Cc1ccc(C(F)(F)F)cc1	0.7	-0.2
Cc1ccc(S(=O)(=O)Nc2ccc3c(c2)C(=O)N([C@@H](C)CO)C[C@H](C)[C@@H](CN(C)C(=O)Nc2ccc(F)cc2)O3)cc1	11	0.9
C[C@H]1CN([C@@H](C)CO)C(=O)c2cc(NS(=O)(=O)c3cccs3)ccc2O[C@@H]1CN(C)Cc1ccc(C(=O)O)cc1	1.3	-0.2

(cont.)
SMILES	BJeLR viability	A1 inhib
C[C@@H]1O[C@@H](O[C@@H]2[C@@H](O)[C@H](O[C@@H]3[C@@H](O)[C@H](C)O[C@@H](O[C@H]4[C@H](O[C@H]5CC[C@@]6(C)C(CC[C@]7(C)C6CC=C6[C@@H]8CC(C)(C)CC[C@]8(C(=O)O)CC[C@]67C)[C@]5(C)CO)OC[C@H](O)[C@@H]4O)[C@@H]3O)O[C@H](CO)[C@H]2O[C@@H]2O[C@H](CO)[C@@H](O[C@@H]3OC[C@@H](O)[C@H](O)[C@H]3O)[C@H](O)[C@H]2O)[C@H](O)[C@H](O)[C@H]1O (some centres undefined)	4.5	0.5
CSc1ncc(Cl)c(C(=O)Nc2nnc(SCc3ccc(F)cc3)s2)n1	0.9	0.4
C[C@H](CO)N1C[C@H](C)[C@@H](CN(C)C)Oc2ccc(NC(=O)Nc3ccccc3)cc2C1=O	3.5	0.3
O=[N+]([O-])c1cccc2cn[nH]c12	-3.6	0.9
O=C(OCCN1C(=O)c2ccccc2C1=O)c1ccccc1	-2.2	-0.2
C[C@H](CO)N1C[C@H](C)[C@@H](CN(C)C(=O)Nc2ccc(C(F)(F)F)cc2)Oc2c(NS(=O)(=O)c3ccc(Cl)cc3)cccc2C1=O	2.5	·
COc1cc2nc3occc3c(OC)c2cc1OCC(O)C(C)(C)O (centres undefined)	-2.7	0.4
C=C1CC[C@H]2[C@](C)(CCC[C@]2(C)C(=O)OC)[C@H]1CC/C(C)=C/C(=O)O	-0.4	0.8
CC(C)NC(=O)Nc1cccc2c1O[C@@H](CN(C)Cc1ccc(Oc3ccccc3)cc1)[C@H](C)CN([C@H](C)CO)C2=O	-10.0	·
CC(C)NC(=O)N(C)C[C@@H]1Oc2ccc(NC(=O)NC3CCCCC3)cc2C(=O)N([C@@H](C)CO)C[C@@H]1C	0.6	0.1

Compound profiles, from the list above.
C[C@@H]1CN([C@H](C)CO)C(=O)c2cccc(NC(=O)c3nc4ccccc4s3)c2O[C@H]1CN(C)Cc1ccc(Oc2ccccc2)cc1 is listed with BJeLR viability: 0.3; A1 inhib: ·
C[C@@H]1CN([C@H](C)CO)C(=O)c2cc(NC(=O)CCCN(C)C)ccc2O[C@@H]1CN(C)C is listed with BJeLR viability: 0.2; A1 inhib: -0.4
Cc1ccc(S(=O)(=O)Nc2ccc3c(c2)C(=O)N([C@H](C)CO)C[C@H](C)[C@@H](CN(C)CC2CC2)O3)cc1 is listed with BJeLR viability: -3.2; A1 inhib: -0.4

More structures
SMILES	BJeLR viability	A1 inhib
C[C@@H]1CN([C@@H](C)CO)C(=O)c2cccc(NS(=O)(=O)c3ccc(Cl)cc3)c2O[C@@H]1CN(C)Cc1ccc(Cl)c(Cl)c1	2.1	·
N#CC1=C(N)n2c(nc3ccccc32)NC1c1ccc(Cl)cc1 (centres undefined)	6.8	·
O=C(O)/C=C/C(=O)NC1CCN(c2nccc(C(F)(F)F)n2)CC1	2.4	0.1
COc1ccccc1OCCSc1nc(-c2ccccc2)c(-c2ccccc2)[nH]1	-3.9	·
COc1ccc(CN(C)C[C@H]2Oc3ccc(NC(=O)Nc4ccc(OC)cc4)cc3C(=O)N([C@@H](C)CO)C[C@H]2C)cc1	-4.0	-0.2
Cc1c(Cl)c(O)c(Cl)c(C)c1N(S(=O)(=O)c1ccccc1)S(=O)(=O)c1ccccc1	0.7	0.7
C[C@@H]1CN([C@@H](C)CO)C(=O)c2cc(NC(=O)CCN3CCOCC3)ccc2O[C@@H]1CN(C)Cc1ccc(Oc2ccccc2)cc1	5.9	0.6
COc1cc(OC)cc(C(=O)n2nc(C)cc2C)c1	4.3	0.0
C[C@@H]1CN([C@@H](C)CO)C(=O)c2cc(NS(=O)(=O)c3cn(C)cn3)ccc2O[C@H]1CN(C)S(=O)(=O)c1cccs1	1.1	0.2
C/C(=N\O)C(=O)c1ccc(-c2ccccc2F)cc1	14	-4.9
CC(C)C(=O)N1N=C2CCCCC2C1(O)C(F)(F)F (centres undefined)	-5.3	0.2
COc1ccc(CN(C)C[C@H]2Oc3ccc(NS(=O)(=O)c4ccccc4)cc3C(=O)N([C@@H](C)CO)C[C@@H]2C)cc1	-1.7	0.7
C[C@@H]1CN([C@H](C)CO)C(=O)c2cc(NC(=O)Nc3ccccc3)ccc2O[C@H]1CN(C)CC1CCCCC1	0.0	-0.4
Cc1noc(C)c1S(=O)(=O)N(C)C[C@@H]1Oc2ccc(NS(=O)(=O)c3cccs3)cc2C(=O)N([C@H](C)CO)C[C@@H]1C	-3.3	0.1
COc1ccc(S(=O)(=O)Nc2ccc3c(c2)C(=O)N([C@H](C)CO)C[C@H](C)[C@H](CN(C)Cc2ccc(C(F)(F)F)cc2)O3)cc1	3.6	0.3
C[C@@H]1CN([C@H](C)CO)C(=O)c2cc(NC(=O)NC3CCCCC3)ccc2O[C@H]1CN(C)S(=O)(=O)c1cccs1	-1.2	0.7
C[C@H](CO)N1C[C@H](C)[C@@H](CN(C)C)Oc2c(NS(=O)(=O)c3cn(C)cn3)cccc2C1=O	0.3	·
COc1ccc(-n2ncc(NC(=O)NCc3ccccn3)c2C)cc1	-2.0	-0.1
COC(=O)c1ccccc1NC(=O)c1c(C)nn(-c2ccccc2)c1-n1cccc1	-9.0	-0.6
Cc1cc(C)c2c(-n3cccc3)c(C(=O)N(C)Cc3ccccc3)sc2n1	-7.1	0.0
C[C@H]1CN([C@@H](C)CO)C(=O)c2cccc(NS(=O)(=O)c3cccs3)c2O[C@@H]1CN(C)S(=O)(=O)c1ccccc1	-1.4	·
C[C@H](CO)N1C[C@H](C)[C@H](CN(C)S(C)(=O)=O)Oc2ccc(NC(=O)Nc3ccccc3)cc2C1=O	-0.1	0.5
C[C@H]1CN([C@@H](C)CO)C(=O)c2cc(NS(=O)(=O)c3cn(C)cn3)ccc2O[C@@H]1CN(C)Cc1ccc(Oc2ccccc2)cc1	-2.7	0.1

An excerpt from above in order of the A1 inhib value, ascending.
SMILES,A1 inhib
C[C@@H]1CN([C@H](C)CO)C(=O)c2cc(NC(=O)Nc3ccccc3)ccc2O[C@H]1CN(C)CC1CCCCC1,-0.4
Cc1cc(C)c2c(-n3cccc3)c(C(=O)N(C)Cc3ccccc3)sc2n1,0.0
CC(C)C(=O)N1N=C2CCCCC2C1(O)C(F)(F)F (centres undefined),0.2

Compound activity deposited in PubChem BioAssay by Broad Institute.

These rows are one share of the data (hit frequency here may not be typical).
